BJeLR viab HTS: compounds reducing viability of BJeLR cells; BJeLR fibroblasts viability, CellTiterGlo ATP luminescence, 48 h; HRASV12, hTERT and SV40 LT/ST transformed; viability loss activity score, % (no concentration beside the values); 30,000 tested, 0.64% active; AID 2275; in the data active = viability loss activity score above about 50%; about a fifth of its hits are not listed in these tables;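 note: higher score means fewer live cells and less ATP luminescence; stock transfer was 50 or 100 nL into about 30 µL; 0% = vehicle wells and 100% = a reference killing control; one replicate is shown; the record names a cut of 85%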
A1 inhib: inhibitors of A1. 21,000 tested, 0.51% active. caspase activation, % (no concentration beside the values). MEF A1-2A-BIM cells, caspase-Glo luminescence, 3 h; percent of clofoctol signal, DMSO as zero. AID 2241;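 active = most replicate scores above 10, or exactly half above 10 with mean activity above 10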;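 note: effector caspase 3 and 7 activity cleaving a DEVD luciferin substrate; 50 nL library stock added to about 30 µL; numbers are from one replicate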
* marks the source's active call; other numbers are inactive results; . = no result given. Only part of the results is shown; rates above refer to the full screens.

SMILES	BJeLR viab HTS	A1 inhib
C[C@@H]1CN([C@@H](C)CO)C(=O)c2cc(NS(=O)(=O)c3cn(C)cn3)ccc2O[C@H]1CN(C)S(=O)(=O)c1ccccc1	-2.8	-1.9
COc1ccc(NC(=O)Nc2ccc3c(c2)C(=O)N([C@@H](C)CO)C[C@@H](C)[C@@H](CN(C)C(=O)NC(C)C)O3)cc1	4.8	0.2
CC(C(=O)O)n1cnc2scc(-c3ccc(Cl)cc3)c2c1=O (stereo not given)	8.6	.
C[C@H]1CN([C@@H](C)CO)C(=O)c2cc(NC(=O)NC3CCCCC3)ccc2O[C@H]1CN(C)S(C)(=O)=O	-6.9	0.1
COc1ccc(NC(=O)Nc2ccc3c(c2)C(=O)N([C@H](C)CO)C[C@@H](C)[C@H](CN(C)S(=O)(=O)c2cccs2)O3)cc1	-1.0	-0.5
O=C1CSC(c2ccccc2)N1C1CCCCC1 (stereo not given)	-0.5	0.0
Cc1ccc(S(=O)(=O)Nc2cccc3c2O[C@H](CN(C)CC2CCCCC2)[C@H](C)CN([C@H](C)CO)C3=O)cc1	-2.5	.
Cc1noc(C)c1NC(=O)Nc1cccc2c1O[C@H](CN(C)CC1CC1)[C@@H](C)CN([C@@H](C)CO)C2=O	-0.4	.
COC(=O)c1c(C)oc(C)c1S(=O)(=O)N1CCOCC1	1.4	0.1
O=C(O)CSCC(=O)N1CCN(Cc2ccc3c(c2)OCO3)CC1	0.1	.
C[C@@H]1CN([C@H](C)CO)C(=O)c2cccc(NC(=O)c3nc4ccccc4s3)c2O[C@@H]1CN(C)S(=O)(=O)c1cn(C)cn1	0.1	.
COc1ccc(S(=O)(=O)Nc2cccc3c2O[C@@H](CN(C)Cc2ccc4c(c2)OCO4)[C@@H](C)CN([C@@H](C)CO)C3=O)cc1	6.8	.
Cc1noc(C)c1NC(=O)N(C)C[C@@H]1Oc2c(NC(=O)Nc3cccc4ccccc34)cccc2C(=O)N([C@H](C)CO)C[C@H]1C	0.1	.
C[C@@H]1CN([C@H](C)CO)C(=O)c2cc(NC(=O)CCN3CCOCC3)ccc2O[C@@H]1CN(C)S(C)(=O)=O	-0.6	1.2
O=C1c2ccccc2O[C@@H](c2ccc(Cl)cc2)[C@@H]1O	18.3	-1.7

5 entries from above, ordered by SMILES length, lowest first:
SMILES	BJeLR viab HTS	A1 inhib
COC(=O)c1c(C)oc(C)c1S(=O)(=O)N1CCOCC1	1.4	0.1
O=C(O)CSCC(=O)N1CCN(Cc2ccc3c(c2)OCO3)CC1	0.1	.
O=C1c2ccccc2O[C@@H](c2ccc(Cl)cc2)[C@@H]1O	18.3	-1.7
Cc1ccc(S(=O)(=O)Nc2cccc3c2O[C@H](CN(C)CC2CCCCC2)[C@H](C)CN([C@H](C)CO)C3=O)cc1	-2.5	.
COc1ccc(NC(=O)Nc2ccc3c(c2)C(=O)N([C@@H](C)CO)C[C@@H](C)[C@@H](CN(C)C(=O)NC(C)C)O3)cc1	4.8	0.2

Further results:
SMILES	BJeLR viab HTS	A1 inhib
CC1(C)CC[C@@]2(C(=O)O)C(C1)C1=CCC3[C@@]4(C)CC[C@H](O)C(C)(C)C4CC[C@@]3(C)[C@]1(C)C[C@H]2O (stereo not given in full)	-5.9	0.1
C[C@@H]1CN([C@@H](C)CO)C(=O)c2cc(NS(=O)(=O)c3cn(C)cn3)ccc2O[C@@H]1CN(C)Cc1ccccc1	1.8	-0.7
O=C(OCn1nnc2ccccc2c1=O)C(c1ccccc1)c1ccccc1	-0.3	.
CC(C)S(=O)(=O)c1cscc1N1C(=O)c2ccccc2C1=O	-0.3	-0.2
CCN(CC)C(=S)Oc1ccc(C#N)cc1	-1.7	0.4
COc1ccc(NC(=O)CN(c2ccc(C)cc2)S(=O)(=O)c2ccc(OC)cc2)cc1	-1.1	-0.3
C[C@@H]1CN([C@H](C)CO)C(=O)c2cccc(NC(=O)Nc3ccc(C(F)(F)F)cc3)c2O[C@@H]1CN(C)S(C)(=O)=O	-1.9	.
CCNC(=O)c1cc2c(=O)n3ccccc3nc2n(C(C)C)c1=N	-3.9	-0.3
C[C@@H]1CN([C@H](C)CO)C(=O)c2cc(NC(=O)Cc3cn(C)c4ccccc34)ccc2O[C@H]1CN(C)S(=O)(=O)c1ccc(F)cc1	-1.5	0.0
COc1c(NC(=O)N(C)C)csc1Cl	-6.0	1.0
O=C(NC1CCCC1)C1c2ccccc2Oc2ccccc21	3.1	1.3
C[C@H](CO)N1C[C@H](C)[C@H](CN(C)S(C)(=O)=O)Oc2ccc(NC(=O)Cc3cn(C)c4ccccc34)cc2C1=O	1.8	-0.4
O=C(CSc1nc2ccccc2nc1N1CCOCC1)N1CCC2(CC1)OCCO2	-0.9	0.2
CCOC(=O)/C(=C\Nc1ccc(F)c(Cl)c1)S(=O)(=O)c1ccc(Cl)cc1	0.9	1.1
CCC(C)NC(=O)c1cc(Nc2ccc(C(C)C)cc2)nc2ccccc12 (stereo not given)	3.3	.

Complete entries from above. Values in the order: BJeLR viab HTS	A1 inhib
CC1(C)CC[C@@]2(C(=O)O)C(C1)C1=CCC3[C@@]4(C)CC[C@H](O)C(C)(C)C4CC[C@@]3(C)[C@]1(C)C[C@H]2O (stereo not given in full) in the list: -5.9	0.1
O=C(OCn1nnc2ccccc2c1=O)C(c1ccccc1)c1ccccc1 in the list: -0.3	.
O=C(CSc1nc2ccccc2nc1N1CCOCC1)N1CCC2(CC1)OCCO2 in the list: -0.9	0.2
C[C@H](CO)N1C[C@H](C)[C@H](CN(C)S(C)(=O)=O)Oc2ccc(NC(=O)Cc3cn(C)c4ccccc34)cc2C1=O in the list: 1.8	-0.4

Additional entries:
SMILES	BJeLR viab HTS	A1 inhib
COc1ccc(OC)c(Nc2nc(-c3c(C)nc4sccn34)cs2)c1	5.7	-1.4
Cc1cc(C)cc(CC(c2nc3ccccc3[nH]2)C(C)c2nc3ccccc3[nH]2)c1 (stereo not given)	-2.3	0.9
OC1c2ccccc2-c2c3c(cc4c2C1NCC4)OCO3 (stereo not given)	-15.1	0.8
COc1ccc(-c2nnc(Nc3ccc(Cl)cc3)c3ccccc23)cc1	1.8	0.0
CC(C)(C)C1=NN(c2nc3ccc(Cl)cc3s2)C(=O)C1	12.4	-4.0
O=C(Nc1cc2ccccc2s1)Nc1ccc(F)cc1F	11.8	-2.5
C[C@@H]1CN([C@H](C)CO)C(=O)c2cc(NC(=O)Nc3ccc(F)cc3)ccc2O[C@H]1CN(C)S(=O)(=O)c1ccc(F)cc1	17.1	0.5
COc1ccc(NC(=O)Nc2ccc3c(c2)C(=O)N([C@@H](C)CO)C[C@H](C)[C@H](CN(C)Cc2ccc(Cl)c(Cl)c2)O3)cc1	2.2	0.7
CCN(CC)C(=O)Oc1c(Br)cc(Br)c2ccc(C)nc12	11.3	0.2
CC(C)n1nnc(CC(=O)NN)n1	-0.5	.
NC(N)=NS(=O)(=O)c1ccc(N=Cc2ccccc2O)cc1	2.6	-0.1
CC1=C(C(=O)OC(C)C(C)(C)C)C(c2cccc(Br)c2)NC(=O)N1 (stereo not given)	1.1	-0.6
COc1cc2[nH]c3ccccc3c2cc1C	-0.6	0.0
Cc1ccc(S(=O)(=O)N(C)C[C@H]2Oc3c(NC(=O)C4CC4)cccc3C(=O)N([C@H](C)CO)C[C@@H]2C)cc1	0.9	.
CC1=C(C(=O)OC2CCCC2)C(c2cccc(Cl)c2)CC(=O)N1 (stereo not given)	0.4	.
COc1ccc(CCN2C(=O)C(C)SC2c2cccnc2)cc1 (stereo not given)	-0.3	0.6
CC(NS(=O)(=O)c1ccc(C(C)(C)C)cc1)c1ccccc1 (stereo not given)	-5.7	-0.5
CC(C)NC(=O)Nc1ccc2c(c1)C(=O)N([C@@H](C)CO)C[C@@H](C)[C@@H](CN(C)C(=O)NC1CCCCC1)O2	0.7	-0.1
CC(C)(C)n1nc(C2CC2)cc1NC(=O)Nc1ccccc1	-5.0	-0.5
C[C@H]1CN([C@@H](C)CO)C(=O)c2cc(NC(=O)Cc3ccccc3)ccc2O[C@H]1CN(C)Cc1ccccc1	1.2	-0.2
CNC[C@@H]1Oc2ccc(NS(=O)(=O)c3cn(C)cn3)cc2C(=O)N([C@H](C)CO)C[C@H]1C	-0.8	0.3
COc1ccc(S(=O)(=O)N(C)C[C@@H]2Oc3ccc(NS(=O)(=O)c4ccc(Cl)cc4)cc3C(=O)N([C@@H](C)CO)C[C@H]2C)cc1	-2.9	0.0
C=C(C)C(=O)Nc1ccc2c(c1)C(=O)NC2=O	-2.4	0.1
CCN(Cc1ccccc1)c1sc(S(=O)(=O)CC)nc1S(=O)(=O)c1ccc(C)cc1	1.3	0.6
Cc1noc(C)c1S(=O)(=O)Nc1cccc2c1O[C@@H](CN(C)C(=O)NC(C)C)[C@@H](C)CN([C@H](C)CO)C2=O	-0.6	.
CCc1ccc(NC(=O)C2CCC(=O)N(c3ccc(OC)cc3)C2c2ccc(OC)cc2)cc1 (stereo not given)	-0.7	.
CSc1ccc2nnc(-c3ccc(F)cc3)n2n1	-7.8	0.6
C[C@H]1CN([C@@H](C)CO)C(=O)c2cccc(NC(=O)c3ccc(-c4nccs4)cc3)c2O[C@H]1CN(C)C(=O)Nc1ccccc1	0.4	.
O=S(=O)(NCc1ccncc1)c1ccccc1	4.2	-1.8
Fc1cccc(Cl)c1CN1CCN(CCCNc2ncnc3scc(-c4ccccc4)c23)CC1	10.7	.
Cc1ccc(NC(=S)NC(=O)C23CC4CCC(CC(C4)C2)C3)cc1	-5.4	-0.2
C[C@@H]1CN([C@@H](C)CO)C(=O)c2cc(NC(=O)Nc3ccc(F)cc3)ccc2O[C@@H]1CN(C)S(=O)(=O)c1cn(C)cn1	0.6	0.0
Cc1noc(C)c1NC(=O)Nc1ccc2c(c1)C(=O)N([C@@H](C)CO)C[C@H](C)[C@H](CN(C)S(=O)(=O)c1cn(C)cn1)O2	4.4	0.9
O=C(O)C=C1C2CC3CC(C2)CC1C3	3.6	0.5
C[C@@H]1CN([C@H](C)CO)C(=O)c2cccc(NS(=O)(=O)c3cn(C)cn3)c2O[C@@H]1CN(C)S(=O)(=O)c1ccc(F)cc1	0.3	.
C[C@H](CO)N1C[C@H](C)[C@H](CN(C)Cc2ccc(Cl)c(Cl)c2)Oc2c(NS(=O)(=O)c3ccc(F)cc3)cccc2C1=O	3.0	.
O=C(NCCN1CCOCC1)c1ccc(-c2ccccc2)cc1	1.5	-1.0
COCCN(C(=S)Nc1cc(F)cc(F)c1)C1CCN(C(C)=O)CC1	-7.4	-0.1
CCCOc1ccc(C(=O)Nc2ccc(NC(=O)c3ccco3)cc2)cc1	10.5	1.7
COc1cc(O[C@@H]2O[C@H](CO[C@H]3OC[C@](O)(CO)[C@H]3O)[C@@H](O)[C@H](O)[C@H]2O)cc(OC)c1OC	-11.8	0.1
CNC[C@H]1Oc2c(NC(=O)Nc3ccc(OC)cc3)cccc2C(=O)N([C@@H](C)CO)C[C@@H]1C	2.3	.
C[C@H]1CN([C@@H](C)CO)C(=O)c2cc(NS(=O)(=O)c3ccccc3)ccc2O[C@H]1CN(C)Cc1ccc(Oc2ccccc2)cc1	-1.2	0.0
C[C@H](CO)N1C[C@H](C)[C@@H](CN(C)C(=O)Nc2ccc(C(F)(F)F)cc2)Oc2ccc(NC(=O)CCCCCC(=O)Nc3ccccc3N)cc2C1=O	25.8	.
Cc1noc(C)c1NC(=O)N(C)C[C@@H]1Oc2ccc(NC(=O)CCC(F)(F)F)cc2C(=O)N([C@H](C)CO)C[C@@H]1C	3.6	0.9
C[C@H](CO)N1C[C@H](C)[C@H](CN(C)S(=O)(=O)c2cccs2)Oc2ccc(NC(=O)Nc3ccc4c(c3)OCO4)cc2C1=O	5.9	-0.1
Cc1noc(C)c1NC(=O)N(C)C[C@H]1Oc2c(NS(=O)(=O)c3c(C)noc3C)cccc2C(=O)N([C@H](C)CO)C[C@H]1C	-3.5	.
C[C@@H]1CN([C@H](C)CO)C(=O)c2cc(NC(=O)Cc3cn(C)c4ccccc34)ccc2O[C@H]1CN(C)S(=O)(=O)c1cccs1	-6.6	0.5
C[C@@H]1CN([C@@H](C)CO)C(=O)c2cccc(NS(C)(=O)=O)c2O[C@@H]1CN(C)Cc1ccc(C(=O)O)cc1	-1.4	.
C[C@H]1CN([C@@H](C)CO)C(=O)c2cc(NS(=O)(=O)c3cn(C)cn3)ccc2O[C@@H]1CN(C)Cc1ccc2c(c1)OCO2	5.0	1.3
COc1ccc(NC(=O)Nc2ccc3c(c2)C(=O)N([C@H](C)CO)C[C@@H](C)[C@@H](CN(C)Cc2ccc(-c4ccccc4)cc2)O3)cc1	4.1	1.8
COc1ccc(C2=[N+]([O-])C(C)(C)C(c3ccccc3)=N2)cc1	-0.1	.
C[C@H]1CN([C@@H](C)CO)C(=O)c2cc(NC(=O)Nc3ccccc3)ccc2O[C@@H]1CN(C)C	-3.2	-0.1
CCOC(=O)C1CCN(C(=O)N2c3ccccc3Sc3ccccc32)CC1	-2.4	-0.6
C[C@@H]1CN([C@H](C)CO)C(=O)c2cc(NS(=O)(=O)c3cn(C)cn3)ccc2O[C@H]1CN(C)Cc1ccncc1	-2.6	0.3
COc1ccccc1N(CC(=O)N(C)Cc1ccccc1)S(C)(=O)=O	1.6	-0.1
COCCn1c(C)cc(C=C2C(=O)N(C)C(=S)N(C)C2=O)c1C	0.2	0.7
Nn1c(COc2ccc(Cl)cc2)nc2ccccc2c1=O	-2.8	-4.2
Cc1ccc(S(=O)(=O)N2CCC(C#N)C(=O)c3ccccc32)cc1 (stereo not given)	3.8	1.1
C[C@H]1CN([C@@H](C)CO)C(=O)c2cc(NC(=O)C3CC3)ccc2O[C@@H]1CN(C)S(=O)(=O)c1cccs1	-1.4	-0.1
COc1ccc(CN(C)C[C@H]2Oc3ccc(NC(=O)Nc4ccc(OC)cc4)cc3C(=O)N([C@@H](C)CO)C[C@@H]2C)cc1	0.9	-0.1
O=C(CSC(=S)N1CCOCC1)Nc1nc(-c2c[nH]c3ccccc23)cs1	-2.1	1.1

From PubChem
